TRPML1 ag: human mucolipin-1 channel agonism | TRPML1-expressing cells, Ca2+ dye fluorescence, FDSS; host cell line not named in the record; reference of the full effect not given here | 410,000 tested, 0.12% active | Q9GZU1 | AID 624414 | activation, % (no concentration beside the values); in the data active = activation above about 50%; inconclusive = about 30% to 50%; inactive = below about 30%; also: 0% is about no effect; the text of the record puts the active cut at 80%
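TRPML1-DL cells, Tet-induced overnight (~16 h, 37 degrees C), loaded 45-90 min at room temperature with Ca8 no-wash calcium dye plus quencher. FDSS fluorescence: 10 s baseline, compound pin-transfer, 110 s agonist read, then EC80 54-4 (4uM final) and 110 s antagonist read.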
D2 potentiator: positive allosteric modulators of human D2 dopamine receptor; P14416; DiscoveRx D2 beta-arrestin cells, luminescence, 90 min; 100% = 57 uM dopamine signal; potentiation, % (concentration not given with the values); 360,000 tested, 0.23% active; AID 624464; active = potentiation of 50% or more; inconclusive = 30% to 50%; inactive = 30% or less;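 also: compound concentration not given in the record; tested on top of an EC20 dose of dopamine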
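D2 cells co-treated with compound plus 50 nM dopamine (EC20) for 90 min at 37 deg C to detect potentiation. Beta-arrestin recruitment was read as enzyme-fragment luminescence after 1 h at ambient temperature. Full response was set by 57 uM dopamine.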
D2 agonist: activates the human D2 dopamine receptor; DiscoveRx PathHunter D2 beta-arrestin, luminescence, 90 min; 100% = 57 uM dopamine signal; 360,000 tested, 0.084% active; AID 624465; activation, % (concentration not given with the values); in the data active = activation above about 40%; inconclusive = about 15% to 40%; inactive = below about 15%; also: compound concentration not given in the record; the text of the record calls up to 30% inactive
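Agonist mode: compounds alone added to overnight-plated D2 PathHunter cells for 90 min at 37 C, with 57 uM final dopamine (EC100) defining full response. Beta-arrestin recruitment detected by chemiluminescent reagent, read after 1 h at ambient temperature.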
Six1-Eya2 inh: inhibitors of human Six1/Eya2 interaction. Q15475+O00167. AlphaScreen GST-Six1/His-Eya2 binding, biochemical; active compounds read low; control for the full effect not named in the record. activity change, % (test concentration not listed). 360,000 tested, 0.56% active; in the data active = activity change below about -65%; inconclusive = about -30% to -65%; inactive = above about -30%; also: % is scaled to controls: 0 for no effect and ±100 for the full control effect
Target sequence (O00167 whole entry, looked up): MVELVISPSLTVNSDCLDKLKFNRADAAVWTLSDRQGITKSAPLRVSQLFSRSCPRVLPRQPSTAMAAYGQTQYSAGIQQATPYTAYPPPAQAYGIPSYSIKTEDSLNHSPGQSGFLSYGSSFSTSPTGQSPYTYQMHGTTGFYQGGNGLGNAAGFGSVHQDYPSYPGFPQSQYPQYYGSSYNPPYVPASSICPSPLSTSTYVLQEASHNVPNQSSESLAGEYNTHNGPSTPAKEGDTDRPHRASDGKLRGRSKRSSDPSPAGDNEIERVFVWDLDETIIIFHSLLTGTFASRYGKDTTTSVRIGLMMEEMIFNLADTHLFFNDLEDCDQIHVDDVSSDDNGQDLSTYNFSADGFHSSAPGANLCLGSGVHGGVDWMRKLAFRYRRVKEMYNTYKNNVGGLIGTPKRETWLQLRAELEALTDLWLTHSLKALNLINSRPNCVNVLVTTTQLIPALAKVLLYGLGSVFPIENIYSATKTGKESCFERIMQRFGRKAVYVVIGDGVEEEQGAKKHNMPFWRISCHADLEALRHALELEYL
Target sequence (Q15475 whole entry, looked up): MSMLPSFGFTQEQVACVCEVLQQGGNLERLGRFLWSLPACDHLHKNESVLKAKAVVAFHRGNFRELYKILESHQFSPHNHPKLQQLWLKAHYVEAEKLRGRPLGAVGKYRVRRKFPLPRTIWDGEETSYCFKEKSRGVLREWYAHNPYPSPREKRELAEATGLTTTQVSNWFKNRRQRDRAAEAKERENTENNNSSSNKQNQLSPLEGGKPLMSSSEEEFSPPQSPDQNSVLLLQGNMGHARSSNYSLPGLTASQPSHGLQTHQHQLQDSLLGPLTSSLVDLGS
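AlphaScreen luminescence read after one hour at 37 °C in darkness. Pin-transferred compounds met GST-Six1 and His-Eya2 protein (5X stock 250 nM/500 nM) plus glutathione donor and Ni-chelate acceptor beads (5X, 50 ug/mL).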
TRPML1 inh: human mucolipin-1 channel inhibition. Q9GZU1. TRPML1-inducible cells, Ca2+ dye fluorescence, FDSS; active compounds read low; inhibition of EC80 agonist-evoked calcium signal. activity change, negative = inhibition, % (no concentration beside the values). 390,000 tested, 0.02% active. AID 624415; in the data active means activity change below about -50%; inconclusive means about -30% to -50%; inactive means above about -30%;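 also: stimulus is agonist 54-4 at its EC80 concentration; % is scaled to controls: 0 for no effect and ±100 for the full control effect; compound concentration not given in the record; the text of the record puts the active cut at -80%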
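Tet-induced TRPML1-DL cells loaded with Ca8 no-wash calcium dye were read kinetically on FDSS. Compound addition was followed by EC80 agonist 54-4 (4 uM final); inhibition was read over 110 s.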
PINK1 expr mod: PINK1 expression modulation. Potency, µM (doses to about 76.6 µM), for the others: at the highest dose activation (PINK1 increase), actives largely listed as activators. 410,000 tested, 0.2% active. PINK1 immunofluorescence, high-content cytometry, 24 h; active = well fitted activation curve with a large enough effect; inconclusive = small, poorly fitted or top-dose-only effect; inactive = flat fitted curve, though single readings scatter; cell line not stated here;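 also: potency is read from the fitted curve at half-maximal effect; % of control where 0% means no effect; nearly all actives have a fitted effect of over 65% in size; a mitochondrial uncoupler was the plate control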
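Stable cell line, 250 cells/well, 12 h attachment; compounds pinned at 5 concentrations, 24 h; CCCP control. Fixed with nuclear dye, primary antibodies 12 h at 10 degrees C, secondary plus cell stain; laser-scanning cytometer read.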
* hit, by the source's call; ? = inconclusive; nt = no result given; [ ] = another dose, or the depositor's remark. The order is random, and some 1% of all compounds hit somewhere here.

SMILES	TRPML1 ag	D2 potentiator	D2 agonist	Six1-Eya2 inh	TRPML1 inh	PINK1 expr mod
COC(=O)C1=C(C)NC2=C(C(=O)CCC2)C1c1cn(Cc2ccc(Br)cc2)nc1-c1ccccc1 (configuration not stated)	-0.9	-14	-6.5	-5	23	-0.5%
Cn1cnnc1SCC(=O)Nc1c(F)cc(F)cc1Br	-0.8	1	-0.4	8	3	-0.8%
CN=C1SC(CC(=O)Nc2cccc(Cl)c2Cl)C(=O)N1C (configuration not stated)	0.1	-11	0.2	6	1	2.2%
Cc1ccc(N2CCN(C(=O)c3c4c(nc5ccccc35)C(=O)N(C3CCCCC3)C4)CC2)c(C)c1	-0.5	nt	nt	nt	-18	1.0%
COc1ccc(NC(C)=O)cc1NC(=O)CSc1nnc(C2CCCCC2)n1N	0.8	-13	-5.4	4	-5	-0.4%
Cc1sc2nc(SCC(=O)NCc3ccco3)n(CCc3ccccc3)c(=O)c2c1C	2.9	16	14	-1	10	14%
COc1cc2[nH]c(C)c(-c3ccccc3)c(=O)c2cc1Cl	0.4	nt	nt	0	nt	4.9%
O=C(Cc1ccccc1)Nc1sc2c(c1C(=O)Nc1ccccc1Cl)CCC2	-0.1	nt	nt	nt	-20	-0.6%
CS(=O)(=O)N1CCN(C(=O)c2csc3ccccc23)CC1	2.3	-3	-1.0	3	-16	9.7%[38.3 µM]
CCC(=O)N1CCc2cc(S(=O)(=O)CCC(=O)NCCc3ccc(OC)c(OC)c3)ccc21	-0.5	-13	-0.4	4	6	-0.4%
COC(=O)c1ccc(COC(=O)C2CC(O)CN2S(=O)(=O)c2ccc([N+](=O)[O-])cc2)cc1 (configuration not stated)	-0.2	6	?	-1	4	-1.3%
O=C(c1ccc2oc(CCc3ccccc3)nc2c1)N1CCC(O)CC1	0.7	-6	6.5	2	10	-1.5%
O=C(C1CCN(S(=O)(=O)c2cccc3nonc23)CC1)N1CCCCC1	-0.5	-3	1.9	-3	-1	2.1%
C=CCC(O)(CC=C)CNC(=O)C1CCC(=O)N(CCCc2ccccc2)C1 (configuration not stated)	-0.4	-2	-3.4	-12	-12	0.7%
CC(=O)OC1CCC2(C)C(=CCC3C4CC(=O)N(O)C(=O)C4(C)CCC32)C1 (configuration not stated)	-0.9	-7	-1.4	-2	-2	1.7%
O=C(Cn1nc(C(=O)O)c2ccccc2c1=O)NC12CC3CC(CC(C3)C1)C2	0.3	-2	-18	0	-12	-0.7%
O=C(CSc1nnc(NC(=O)c2ccco2)s1)Nc1ccccc1	2.0	5	1.9	-16	14	0.9%
Cc1cc(C)n(C(=O)CNC(=O)COc2ccccc2)n1	-0.3	-4	-4.6	1	-3	1.8%
COc1ccc(NS(=O)(=O)c2ccc3c(c2)CCC(=O)N3)cc1O	-0.7	0	-1.1	9	11	1.9%
CC1CCCC(NC(=O)C2CCCN2S(=O)(=O)c2cccc3nsnc23)C1C (configuration not stated)	0.0	-6	-6.3	-6	1	0.0%
Cc1cc(C)n2ncnc2n1	0.0	-17	-2.4	-13	36	nt
Cc1ccc(NC(=O)N2CCCC(c3ccccc3)C2)cc1 (configuration not stated)	3.8	-1	?	10	-15	-1.9%
O=C(Cn1ncn2nc(-c3cccs3)cc2c1=O)NCc1ccc(Cl)cc1	1.1	nt	nt	nt	5	1.3%
O=C1NC(=O)/C(=C\c2ccccc2OCc2ccc([N+](=O)[O-])cc2)N1	5.4	3	-4.7	-12	10	1.3%
Cc1cc(-n2nnc3ccccc32)nc2ccccc12	4.1	-4	-1.9	4	43	2.0%
CCn1cc(C(=O)O)c(=O)c2cc(F)c(N3CCN(C(=S)NC(=O)c4ccc(F)c(F)c4)CC3)cc21	0.5	-4	-1.3	3	10	1.6%
Cc1ccccc1NC(=O)c1c(C)[nH]c(=S)c(C#N)c1-c1ccco1	0.2	-10	-2.3	0	-14	4.5%
COc1ccc(NC(=O)COc2ccc(C)cc2)c([N+](=O)[O-])c1	1.3	-3	-1.1	-7	-16	7.8%
CCCCC/C=C/C1=CC(=O)C[C@H](c2ccc(Cl)cc2)C1	1.5	-1	-3.3	8	-9	?
S=C(NCc1ccccc1)N1CCN(C2CCCCC2)CC1	nt	-33	-4.4	-6	nt	-0.1%
Cc1nc(NC(=O)CSc2cc(C)c3ccccc3n2)c(Cl)cc1Cl	3.0	-10	-1.9	3	42	0.9%
O=C(COC(=O)c1ccco1)Nc1ccccc1[N+](=O)[O-]	0.0	6	3.6	2	-11	1.0%
Cc1cc(OCC(=O)NCc2ccccn2)c2c(C)c(C)c(=O)oc2c1	-1.4	-10	-4.8	0	20	1.4%
O=[N+]([O-])c1cc(S(=O)(=O)NCCc2ccccn2)ccc1Cl	-0.1	26	1.7	4	3	6.9%
CCCn1nnnc1NCc1ccccc1F	0.3	-4	-1.8	-3	-8	1.0%
Cc1cccc(NC(=O)C2CCN(S(=O)(=O)c3c(C)noc3/C=C/c3ccco3)CC2)c1	0.3	nt	nt	nt	-5	1.5%
Cc1ccc(CN2CCN(Cc3ccncc3)CC2CCO)o1 (configuration not stated)	-0.3	-10	0.1	-4	6	-1.5%
COc1ccc(C(=O)Nn2c(SCC(=O)NCc3ccco3)nc3ccccc3c2=O)cc1	-0.5	-7	-0.8	?	-5	1.3%
CC1=CC2C(C(O)CC3(C)C2CC(C)C32OCOC23COCO3)C2(C)C/C(=C\O)C(=O)C=C12 (configuration not stated)	-0.2	-7	5.9	-8	12	-6.9%
COc1ccc(-n2c(=O)c3ccccc3n(CC(=O)c3ccccc3)c2=O)cc1OC	0.0	1	1.0	-6	-10	0.6%
O=C(O)COc1ccccc1/C=C1\C(=O)Nc2ccc(Br)cc21	-1.8	1	-1.9	-16	9	1.1%
Clc1c(-c2nnc3n2CCC3)sc2ccccc12	-0.2	-10	-2.1	-4	14	-3.4%
O=C(CCN1CCCCCC1)Nc1cccc(Cl)c1	0.8	-16	0.6	4	33	-1.4%[38.3 µM]
CC(NC(=S)Nc1ccc([N+](=O)[O-])cc1)c1ccncc1 (configuration not stated)	1.9	-10	-2.0	-7	-7	-2.4%
CC(C)c1ccc(CNc2ncccn2)cc1	0.3	-4	-0.5	0	2	3.3%
CCCN(Cc1nnc(-c2ccccc2Cl)o1)C(=O)c1cc([N+](=O)[O-])cc([N+](=O)[O-])c1	-0.6	8	12	-9	-1	0.5%
Cc1ccc(NC(=O)Cn2c(=O)n(CCCCC(=O)NCc3ccc4c(c3)OCO4)c(=O)c3ccccc32)cc1	-0.6	nt	nt	nt	-2	1.6%
c1ccc(CNc2ncn[nH]2)cc1	0.4	-11	-7.0	7	-5	1.1%
CCOC(=O)c1nnc(-c2cccs2)nc1NC(C)C	3.9	-14	-3.0	0	6	-3.0%
CN(C(=O)c1ccccc1C(=O)OCC(=O)Nc1ccc(S(N)(=O)=O)cc1)c1ccccc1	-0.1	4	-2.4	-1	-5	-0.7%
O=C1CCC(=O)N1c1cccc(OS(=O)(=O)c2ccccc2)c1	-0.3	-1	-1.1	6	11	0.6%
OC(c1ccc(F)cc1)c1nc(/C=C/c2ccccc2)cs1 (configuration not stated)	0.3	-4	-4.2	-11	nt	7.0%
CCNC(=S)NS(=O)(=O)c1ccc(F)cc1	1.6	-13	-13	10	11	-0.1%
COc1cc(OC)c(C2CC(=O)N3CN(c4ccccc4)CSC3=C2C#N)cc1OC (configuration not stated)	-0.6	-13	1.5	-7	-5	-2.8%
O=C(CCc1nc2ccccc2[nH]1)Nc1ccc2c(c1)OCCO2	1.5	0	-2.2	6	-4	1.4%
Cc1cc(OCCCn2ccnc2)ccc1C(C)C	0.8	-6	-0.4	-9	23	-1.1%
CCCNC(=O)NCCC12CC3CC(CC(C3)C1)C2	1.4	-8	-1.9	4	?	-2.3%
CC1(C(=O)Nc2ccc3c(c2)OCO3)CCN1C(=O)CCC1CCCC1 (configuration not stated)	-0.8	-4	-2.7	-5	nt	1.8%
O=S(=O)(c1ccc(Br)cc1)c1nnn2c1nc(NCc1ccc3c(c1)OCO3)c1sccc12	-0.1	nt	nt	nt	0	3.7%
Cc1nc2ncnn2c(C)c1CCC(=O)NC(C)CCc1ccco1 (configuration not stated)	-0.1	-5	-1.2	2	-2	nt
(continued)
SMILES	TRPML1 ag	D2 potentiator	D2 agonist	Six1-Eya2 inh	TRPML1 inh	PINK1 expr mod
CC1=C(C(=O)OCC2CCCO2)C(c2ccncc2)C2=C(CC(C)(C)CC2=O)N1 (configuration not stated)	-0.5	23	-1.3	4	7	2.0%
CCc1ccc(NC(=O)Cc2c(C(=O)O)c(C)cn2C)cc1	-0.6	nt	nt	nt	6	1.1%
Cc1c(C(=O)NCc2ccc(F)cc2)sc2nc(-c3ccccc3)cn12	2.4	nt	nt	nt	43	?
COC(=O)Cn1c2ccccc2c2nc(C)sc21	1.4	-5	-2.5	-2	-6	-0.9%[38.3 µM]
Cc1cccc(C(=O)NCc2ccco2)c1	0.4	0	-3.0	1	-2	-0.8%
CNS(=O)(=O)c1cccc(C(=O)OCC(=O)c2c(N)n(Cc3ccccc3)c(=O)n(C)c2=O)c1	0.0	0	-1.9	-7	31	2.9%
CCCCn1c(N)c(N(CCOC)C(=O)c2ccc(-c3ccc(C(C)=O)cc3)o2)c(=O)[nH]c1=O	-0.6	-16	-3.1	0	10	-1.0%
Cc1ccc(-c2csc3ncnc(NCCN4CCOCC4)c23)cc1	-0.3	13	-2.9	-3	?	-1.1%
CCC(=O)N1CCc2cc(S(=O)(=O)NCCC(=O)N3CCc4ccccc4C3)ccc21	0.4	3	0.2	1	10	-2.0%
Cc1noc(C)c1S(=O)(=O)Nc1ccc2c(c1)C(=O)N([C@@H](C)CO)C[C@H](C)[C@@H](CN(C)Cc1ccc(C(F)(F)F)cc1)OCCCC[C@H](C)O2	1.1	-1	1.4	5	-2	7.8%
Cc1ccc(Sc2ncccc2O)cc1	-0.5	-7	-1.5	-10	-3	-0.2%
CN1CCN(CC(=O)Nc2c(C(=O)C3CC3)oc3ccccc23)CC1	-0.4	-33	-0.7	-2	-14	nt
Cc1ccc(C(=O)NCc2cccnc2)cc1S(=O)(=O)N1CCCCCC1	-0.1	22	2.3	-2	8	4.3%
Cc1sc2c(c1C)CN(CCN1CCOCC1)CN2C(=O)c1ccccc1	-0.4	-3	-0.9	0	14	0.3%
C(=C\c1ccccc1)/CN1CCN(C(c2cccs2)c2nnnn2-c2ccc3c(c2)OCCO3)CC1 (configuration not stated)	0.4	-12	-3.2	-30	nt	0.6%

A second format for part of the listing above:
CCCCn1c(N)c(N(CCOC)C(=O)c2ccc(-c3ccc(C(C)=O)cc3)o2)c(=O)[nH]c1=O
  TRPML1 ag: -0.6; D2 potentiator: -16; D2 agonist: -3.1; Six1-Eya2 inh: 0; TRPML1 inh: 10; PINK1 expr mod: -1.0%
CN1CCN(CC(=O)Nc2c(C(=O)C3CC3)oc3ccccc23)CC1
  TRPML1 ag: -0.4; D2 potentiator: -33; D2 agonist: -0.7; Six1-Eya2 inh: -2; TRPML1 inh: -14; PINK1 expr mod: nt

Screens from PubChem BioAssay.
